Calb FLC = affects C. albicans growth with fluconazole | growth inhibition, % (concentration not given with the values) | C. albicans CaCi-2 (fluconazole-resistant clinical isolate) + fluconazole, Alamar Blue growth, 48 h | 300,000 compounds, 0.57% hits | AID 1979;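 active = most replicates above 75%; inconclusive = exactly half above 75%; inactive = most below 75%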;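 also: all wells also contain fluconazole at 8 µg/ml as a sub-toxic cotreatment; 0% = median of DMSO wells and 100% = median of geldanamycin control wells; wells of about 8 µL received 7.5 nL stock; the first replicate is given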
B2AR ag = human beta-2 adrenergic receptor agonism by FAP. Am2.2-beta2AR cells, FAP receptor internalization, flow cytometry; reference of the scale not given here. response, % (concentration not given with the values). 340,000 compounds, 0.43% hits;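 active = response above a set limit, near 3 SD of response in nonfluorescent compounds, cut at about 42% in these data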;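 also: stock transfer was 100 nL into about 11 µL; a reference agonist was the positive control; negative values mostly stem from fluorescent compounds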
Target sequence (P07550 whole entry, looked up): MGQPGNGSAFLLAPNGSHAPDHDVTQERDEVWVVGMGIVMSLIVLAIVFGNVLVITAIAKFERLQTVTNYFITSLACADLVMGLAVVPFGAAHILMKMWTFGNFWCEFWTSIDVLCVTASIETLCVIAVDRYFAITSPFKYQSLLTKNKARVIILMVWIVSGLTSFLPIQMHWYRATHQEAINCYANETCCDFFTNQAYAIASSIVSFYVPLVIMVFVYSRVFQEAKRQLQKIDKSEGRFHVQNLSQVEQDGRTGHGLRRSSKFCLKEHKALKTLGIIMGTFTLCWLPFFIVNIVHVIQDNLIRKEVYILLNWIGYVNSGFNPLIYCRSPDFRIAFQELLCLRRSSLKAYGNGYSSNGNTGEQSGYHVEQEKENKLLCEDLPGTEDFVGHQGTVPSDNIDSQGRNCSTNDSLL
Beta apoptosis = blocks beta cell apoptosis. INS-1E cytokine-induced death, ATP luminescence, 48 h; percent of positive-control rescue, neutral wells zero. protection from apoptosis, % (no concentration beside the values). 300,000 compounds, 0.8% hits;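 active = all replicates at 75% or more, or half of them and the mean; inconclusive = half reach 75% but not the mean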;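 also: 0% = cytokine-treated negative control wells and 100% = positive control rescue; higher means more ATP so stronger rescue from cytokine killing; wells of about 40 µL received 100 nL stock; the first replicate is given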
LANA-H2B inh = blocks KSHV LANA binding to histone H2A/H2B; Q9QR71; cell-free LANA-H2A/H2B peptide, fluorescence polarization; inhibition, % (test concentration not listed); 320,000 compounds, 0.6% hits; AID 2629; in the data active = inhibition mostly above about 10%, no sharp cut-off; inactive = mostly below about 6.7%;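 also: stock transfer was 7.5 nL into about 10 µL; 0% = median of vehicle wells and 100% = median of positive control wells; one replicate is shown; the record names a cut of 25% in any replicate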
T cruzi repl = T. cruzi replication inhibition. 300,000 compounds, 1.4% hits. inhibition, % (concentration not given with the values). T. cruzi beta-gal in NIH3T3, luminescence, 90 h;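 active = mean inhibition across valid replicates above about 55%, limit read from the data; inconclusive = mean below that limit but half or more replicates reach it; inactive = mean below it, under half of replicates reach it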;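 also: signal also drops with host cell toxicity which is not excluded here; 0% = plate median of DMSO wells and 100% = zero luminescence signal; higher percent means less beta-gal luminescence so fewer parasites; stock transfer was 50 nL into about 50 µL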
RanGTP-Imp inh = inhibitors of RanGTP-importin-beta interaction, primary screen, biochemical, FRET, CFP-Ran, YFP-importin-beta, homogeneous. cell-free CFP-Ran/YFP-importin-beta FRET ratio. inhibition, % (no concentration beside the values). 300,000 compounds, 1.1% hits;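 active = most replicates above 15%; inconclusive = exactly half above 15%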;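 also: 0% = DMSO wells and 100% = Ran loaded with GDP instead of GTP; wells of about 40 µL received 100 nL stock; the first replicate is given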
UCH37 DUB inh = blocks the human deubiquitinase UCH37; 330,000 compounds, 0.33% hits; purified proteasome/UCH37, Ub-AMC cleavage fluorescence; inhibition, % (no concentration beside the values);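 active = mean of two replicates above 20%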;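 also: 0% = compound-free wells with enzyme and 100% = wells lacking proteasome; stock transfer was 100 nL into about 20 µL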
Target sequence (Q9Y5K5 whole entry, looked up): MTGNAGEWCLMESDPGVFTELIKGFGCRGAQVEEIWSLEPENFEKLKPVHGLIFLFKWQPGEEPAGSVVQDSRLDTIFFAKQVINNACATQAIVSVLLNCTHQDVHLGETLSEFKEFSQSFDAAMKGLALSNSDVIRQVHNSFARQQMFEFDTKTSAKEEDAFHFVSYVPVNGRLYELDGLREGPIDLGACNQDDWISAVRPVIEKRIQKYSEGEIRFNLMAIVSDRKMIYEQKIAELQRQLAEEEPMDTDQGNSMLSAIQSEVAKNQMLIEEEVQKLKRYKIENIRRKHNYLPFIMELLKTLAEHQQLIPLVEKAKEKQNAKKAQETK
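Material: human UCH37 enzyme supplied as purified proteasome complex / Amount: 0.15 nM proteasome as dispensed / Buffer or medium: pH 7.4 Tris-HCl (50 mM) with ovalbumin, ATP-MgCl2, DTT / Times: preincubation 30 min, reaction 25 min, room temperature / Technique: AMC fluorescence from Ub-AMC cleavage, excitation 355 nm, emission 460 nm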
Bfl-1 A1 inh = inhibitors of the anti-apoptotic protein A1, read as caspase activation; MEF A1-2A-BIM cells, Caspase-Glo 3/7 luminescence, 3 h; percent of clofoctol response, vehicle zero; caspase activation, % (no concentration beside the values); 330,000 compounds, 0.066% hits;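 active = over half of replicate activation scores above 10%, or exactly half above 10 with the replicate mean above 10; inconclusive = replicate mean below 10 yet half the replicates above 10; inactive = over half of replicates below 10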;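 also: wells of about 30 µL received 50 nL stock; many hits fall short of the cut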
The depositor's hits bear a star; ? = inconclusive; / = not tested or not shown.

Key to letters – A = Calb FLC; B = B2AR ag; C = Beta apoptosis; D = LANA-H2B inh; E = T cruzi repl; F = RanGTP-Imp inh; G = UCH37 DUB inh; H = Bfl-1 A1 inh
1. O=C(N=C1SC2CS(=O)(=O)CC2N1Cc1ccc(F)cc1)C1CC1 (stereo not given)
  A: 2; B: 1; C: -1; D: 5.6; E: -9; F: -1.2; G: 4.8; H: -0.5
2. COc1cccc(C(=O)Cn2c(N3CCCCC3)nc3c2c(=O)n(C)c(=O)n3C)c1
  A: 16; B: -16; C: 19; D: 3.4; E: -9; F: 3.6; G: 2.1; H: -0.7
3. CCOc1ccc(N2CC(C(=O)NCCCc3ccccc3)CC2=O)cc1 (stereo not given)
  A: /; B: 1; C: 6; D: 2.5; E: /; F: /; G: 0.0; H: 0.4
4. CC(=O)N1c2ccc([N+](=O)[O-])cc2NC(=O)CC1C (stereo not given)
  A: 21; B: 3; C: 5; D: -0.5; E: -20; F: ?; G: 4.8; H: -1.1
5. CCCNC(=O)CN(C)S(=O)(=O)c1ccc(F)cc1
  A: 16; B: 0; C: -9; D: -1.5; E: 1; F: 0.9; G: 2.7; H: 0.2
6. COc1ccc(N2CCN(c3ccc([N+](=O)[O-])nc3)CC2)cc1
  A: ?; B: -1; C: 3; D: 3.9; E: -12; F: 1.6; G: -1.3; H: 0.9
7. O=C(Nc1cccc([N+](=O)[O-])c1)c1ccccc1
  A: -10; B: 3; C: -3; D: -2.8; E: -2; F: 8.8; G: 5.3; H: -1.9
8. Cc1cc(-c2nnc(SCC(=O)Nc3nc(-c4ccc(Cl)cc4)cs3)o2)no1
  A: 7; B: 2; C: -6; D: -0.4; E: 4; F: -1.8; G: 2.9; H: 1.0
9. CCOC(=O)C1=C(COC(=O)Cc2c(F)cccc2Cl)NC(=O)NC1C (stereo not given)
  A: /; B: -1; C: -5; D: -2.0; E: /; F: /; G: 2.2; H: 1.2
10. Cc1occc1C(=O)NC1CCCCCCC1
  A: -33; B: 1; C: -2; D: 3.1; E: -5; F: 3.3; G: 1.7; H: 0.7

Remaining list, next part:
Key to letters – A = Calb FLC; B = B2AR ag; C = Beta apoptosis; D = LANA-H2B inh; E = T cruzi repl; F = RanGTP-Imp inh; G = UCH37 DUB inh; H = Bfl-1 A1 inh
11. COc1ccc(N2C(=O)CCC(C(=O)N(C)C3CCCCC3)C2c2ccc(OC)c(OC)c2)cc1 (stereo not given)
  A: /; B: /; C: -4; D: 1.5; E: /; F: /; G: 1.8; H: 0.7
12. COc1ccccc1/C=C1\SC(=S)N(CCC(=O)Nc2ccc(C(=O)O)c(O)c2)C1=O
  A: -2; B: 6; C: -1; D: 5.1; E: 1; F: 1.4; G: 9.0; H: -0.7
13. Clc1ccc(-c2nnc3n2CCCC3)cc1Cl
  A: -17; B: -6; C: -13; D: -7.3; E: -5; F: 6.6; G: 0.9; H: 0.6
14. COc1ccccc1N1CCN(C(=S)Nc2cccc(C)c2)CC1
  A: -6; B: -7; C: -6; D: -0.5; E: -38; F: -6.3; G: -0.5; H: -0.3
15. COc1ccc(-n2c(SCC(=O)Nc3nccs3)nc3c(c2=O)SCC3)cc1
  A: -2; B: -6; C: -10; D: 5.1; E: 2; F: 1.1; G: 4.5; H: 1.1
16. O=C(c1cccc(Cl)c1)N1CCC(=O)N(C(CO)Cc2ccccc2)CC1 (stereo not given)
  A: 5; B: 0; C: -2; D: 3.2; E: -13; F: ?; G: 0.3; H: -0.1
17. CCOc1ccc(S(=O)(=O)N2CCN(c3ncccn3)CC2)cc1
  A: 5; B: 0; C: 4; D: 3.1; E: -5; F: 2.7; G: 1.4; H: -0.7
18. O=S(=O)(c1cccc(C(F)(F)F)c1)N1CCC(c2cc(-c3cccc4ccccc34)n[nH]2)CC1
  A: -11; B: 10; C: /; D: 2.8; E: 51; F: -1.7; G: -2.4; H: 0.8
19. COC(=O)c1ccc(CNC(=O)COC(=O)c2cc(Cl)nc(Cl)c2)cc1
  A: 8; B: 3; C: -6; D: 1.0; E: -11; F: 0.5; G: -4.0; H: 0.1
20. Nc1ccc(S(=O)C(F)(F)F)cc1 (stereo not given)
  A: -5; B: 3; C: 0; D: 2.7; E: 0; F: 2.2; G: 1.1; H: 0.1

Screen by screen, from the results shown:
Compounds 12 to 17 in UCH37 DUB inh: 9.0, 0.9, -0.5, 4.5, 0.3, 1.4
Compounds 12 to 17 in RanGTP-Imp inh: 1.4, 6.6, -6.3, 1.1, ?, 2.7
Compounds 12 to 17 in T cruzi repl: 1, -5, -38, 2, -13, -5

Fetched by compound from the list above, four records:
Key to letters – A = Calb FLC; B = B2AR ag; C = Beta apoptosis; D = LANA-H2B inh; E = T cruzi repl; F = RanGTP-Imp inh; G = UCH37 DUB inh; H = Bfl-1 A1 inh
17. CCOc1ccc(S(=O)(=O)N2CCN(c3ncccn3)CC2)cc1
  A: 5; B: 0; C: 4; D: 3.1; E: -5; F: 2.7; G: 1.4; H: -0.7
18. O=S(=O)(c1cccc(C(F)(F)F)c1)N1CCC(c2cc(-c3cccc4ccccc34)n[nH]2)CC1
  A: -11; B: 10; C: /; D: 2.8; E: 51; F: -1.7; G: -2.4; H: 0.8
20. Nc1ccc(S(=O)C(F)(F)F)cc1 (stereo not given)
  A: -5; B: 3; C: 0; D: 2.7; E: 0; F: 2.2; G: 1.1; H: 0.1
16. O=C(c1cccc(Cl)c1)N1CCC(=O)N(C(CO)Cc2ccccc2)CC1 (stereo not given)
  A: 5; B: 0; C: -2; D: 3.2; E: -13; F: ?; G: 0.3; H: -0.1

Remaining list, next part
Key to letters – A = Calb FLC; B = B2AR ag; C = Beta apoptosis; D = LANA-H2B inh; E = T cruzi repl; F = RanGTP-Imp inh; G = UCH37 DUB inh; H = Bfl-1 A1 inh
21. CC(C)Cc1ccc(S(=O)(=O)Nc2ccc3[nH]c(=O)[nH]c3c2)cc1
  A: -2; B: 0; C: 11; D: -2.2; E: -23; F: 0.9; G: 6.0; H: -0.6
22. Cc1ccc(C(=O)NC(=S)N2CCN(C)CC2)cc1Br
  A: -5; B: -3; C: /; D: /; E: -13; F: 8.6; G: 1.7; H: /
23. COc1ccc(-c2ccnc(-c3ccncc3)n2)cc1
  A: 2; B: -3; C: /; D: -2.0; E: -7; F: -1.3; G: 2.0; H: 1.5
24. COc1ccc(OC)c(NC(=O)Nc2ccc(O)c3ccccc23)c1
  A: 2; B: -4; C: -1; D: -3.8; E: -5; F: -0.4; G: -16; H: 0.9
25. CC1CCCCC1NC(=O)CN(C)S(=O)(=O)c1cccc2cccnc12 (stereo not given)
  A: 2; B: 0; C: 4; D: -0.2; E: -12; F: 3.2; G: 0.4; H: 2.2
26. COc1cc(CNc2ccc(S(N)(=O)=O)cc2)ccc1OCC(=O)NC1CCCCC1
  A: -9; B: 3; C: -3; D: 1.5; E: -6; F: -3.8; G: 0.2; H: -0.1
27. CCOC(=O)C(=O)NNc1ccc(F)cc1
  A: 0; B: 4; C: 4; D: -5.5; E: 45; F: 7.7; G: 5.1; H: 0.7
28. COc1ccc(S(=O)(=O)N2CCN(C(=O)c3cc(C)on3)CC2)cc1
  A: /; B: 3; C: 0; D: 1.1; E: /; F: /; G: 6.1; H: 0.5
29. CC1CC(C)CN(S(=O)(=O)c2ccc3c(c2)CC(C)N3C(=O)C2CCC2)C1 (stereo not given)
  A: 8; B: -3; C: 10; D: -3.4; E: 29; F: 1.4; G: 0.6; H: 0.0
30. O=C(Nc1ccc(Cl)cc1)Nc1ccc(Oc2cccnc2)nc1
  A: 4; B: -5; C: 3; D: 1.1; E: 6; F: -0.1; G: 0.8; H: 0.3
31. C=CCn1c(SCC(=O)c2ccc(OC)cc2)nnc1-c1ccc2c(c1)OCO2
  A: 3; B: -4; C: -16; D: -0.8; E: 10; F: 7.5; G: 0.2; H: 0.7
32. O=C(Nc1cccc(C(=O)O)c1)/C(=C\c1ccc2c(c1)OCO2)NC(=O)c1ccco1
  A: -6; B: 2; C: 1; D: 0.1; E: -14; F: -3.6; G: 11; H: -1.0
